High-throughput results (PubChem)
MT1-MMP act inh – MT1-MMP (human) activation inhibition; P50281; HT1080 RFP-PRO-GFP cells, GFP/RFP ratio fluorescence, overnight; percent of plate control window, DMSO zero; GFP/RFP ratio change, % at 20 µM; 0.061% of 360,000 active; AID 651647;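 active = GFP/RFP ratio change of at least 30% with cell ATP level not reduced by more than half and red fluorescence within 50% of control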; note: strong numbers were not always called active
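Test system: HT1080 cells expressing an RFP-PRO-GFP fluorescent reporter construct / Compound dosing: single-point 20 µM compound, 1% DMSO / Schedule: cells overnight before dosing, compound overnight, 37 °C, 5% CO2 / Evaluation: GFP/RFP fluorescence ratio / Control set: DMSO and RFP-L50D-GFP cell wells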
CSC inhib – cancer stem cell inhibition; cancer stem cell-like cells viability, luminescence; inhibition, % at 7.5 µM; 1.1% of 300,000 active; AID 2717;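 active = mean at 75% or more and at least half the replicates too; inconclusive = mean and replicates disagree; tested in HMLE shEcad cells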;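 note: 0% = median of negative and 100% = median of positive control wells; the first replicate is given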
UUG fidelity – modulators of start codon recognition fidelity in yeast; S. cerevisiae UUG-firefly luciferase reporter, luminescence/redox ratio; activity score, % at 18.7 µM; 0.13% of 350,000 active; AID 602363;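 active = replicate mean at a twofold rise or more, about +100% in these data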;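 note: firefly luciferase made from a UUG start codon reports start codon fidelity; reporter light over untreated wells divided by growth signal over untreated wells; some hits fall short of that in this replicate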
PABP FP inh – PABP-poly(A) binding inhibition. inhibition, % at 35 µM. PABP-poly(A) RNA binding, fluorescence polarization. 1% of 290,000 active;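 active = 50% or more with normal probe brightness, or confirmed in later tests; inconclusive = above 50% with abnormal brightness, or retests that disagree; inactive = below 50% or failed in later tests; about a fifth of its hits are not listed in these tables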;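 note: calls also rest on retests at 20 µM and on dose response follow-up; controls were probe without protein and protein plus probe with vehicle; some compounds called inactive have numbers as strong as hits; many hits fall short of the cut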
Target sequence (P11940 whole entry, looked up): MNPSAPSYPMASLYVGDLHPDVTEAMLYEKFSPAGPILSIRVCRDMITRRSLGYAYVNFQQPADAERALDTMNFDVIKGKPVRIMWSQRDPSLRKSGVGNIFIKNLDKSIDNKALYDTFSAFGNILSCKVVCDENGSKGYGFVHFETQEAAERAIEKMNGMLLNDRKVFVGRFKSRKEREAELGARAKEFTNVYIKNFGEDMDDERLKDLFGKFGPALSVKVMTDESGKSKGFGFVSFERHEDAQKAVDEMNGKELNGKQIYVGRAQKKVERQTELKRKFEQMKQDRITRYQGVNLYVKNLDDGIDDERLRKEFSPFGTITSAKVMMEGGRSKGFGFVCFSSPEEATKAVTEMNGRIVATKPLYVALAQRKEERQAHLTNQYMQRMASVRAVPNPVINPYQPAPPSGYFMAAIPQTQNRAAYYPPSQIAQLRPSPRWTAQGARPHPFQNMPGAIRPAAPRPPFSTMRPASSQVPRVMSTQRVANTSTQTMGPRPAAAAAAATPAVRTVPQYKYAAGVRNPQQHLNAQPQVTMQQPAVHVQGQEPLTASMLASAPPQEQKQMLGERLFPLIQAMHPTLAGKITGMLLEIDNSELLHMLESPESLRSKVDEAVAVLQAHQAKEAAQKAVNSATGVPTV
Rce1 inhib – blocks yeast Ras-converting enzyme; Q03530; yeast membranes, quenched prenylated peptide cleavage fluorescence; calls only; 0.27% of 290,000 active; AID 2563;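 active = fall in fluorescence gain of 50% or more versus controls, with final raw signal at or below 3038400; inconclusive = same 50% fall but final raw signal above 3038400; inactive = fall in fluorescence gain under 50%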;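 note: plate controls were neutral control wells for no effect and wells lacking membranes for full effect; tested at 10 µM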
eIF4H FP inh – inhibitors of RNA binding by human eIF4H | Q15056 | eIF4H fluorescence polarization binding assay | inhibition, % at 35 µM | 0.94% of 290,000 active | AID 2012;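 active = 50% or more with normal probe brightness, or confirmed in later tests; inconclusive = above 50% with abnormal brightness, or retests that disagree; inactive = below 50% or failed in later tests; about a fifth of its hits are not listed in these tables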;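 note: calls also rest on retests at 20 µM and on dose response follow-up; 0% = protein and probe with vehicle and 100% = probe without protein; strong numbers were not always called active; many hits fall short of the cut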
Env fusion inh – inhibitors of HIV Env-mediated cell fusion; inhibition, % at 12.3 µM; 1.1% of 360,000 active; HeLa-JRFL Env/CEM21 cell fusion, luciferase; AID 651610;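 active = mean replicate inhibition score of at least 50 and every replicate individually at or above 50; inconclusive = only one of the two criteria met; inactive = mean below 50 and not all replicates reaching 50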;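 note: 0% = plate neutral controls and 100% = maraviroc near 300 nM; one replicate is shown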
eIF4H FP inh retest – further read-out of eIF4H FP inh, marked with its call; inhibition, %; compound at 20 µM; confirmation average;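 mean of two retest wells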
PABP FP inh retest – second read-out of PABP FP inh, no call of its own (marks repeat the call); inhibition, %; compound at 20 µM; confirmation repeats;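 mean of two retest wells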
MT1-MMP act inh RFP – also measured in MT1-MMP act inh; calls as there; RFP signal change, %; measured here: RFP expression control read;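 0 = vehicle wells; hits needed this value within 50% of zero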
* marks the source's active call; other numbers are inactive results; i = inactive; ? = inconclusive; nt = no result given; & = joins results of further samples. Some of the compounds tested; count on the stated rates, not on these rows.

SMILES	MT1-MMP act inh	MT1-MMP act inh RFP	CSC inhib	UUG fidelity	PABP FP inh	Rce1 inhib	eIF4H FP inh	Env fusion inh	others
c1ccc(CNc2ncnc3c2cnn3-c2ccccc2)cc1	11	-9	74	-8	1	i	8	-10
C=C(C)COc1ccc2c(C)c(C)c(=O)oc2c1OCC(=C)C	-4	-11	-4	0	2	i	2	nt
Cc1ccnc(NC(=O)CCC(=O)N(CC(=O)NC2CCCCC2)C2CCCC2)c1	0	1	2	0	0	i	8	13
Nc1nc(CSc2nc3ccccc3s2)nc(N2CCCCC2)n1	-4	-6	-15	-12	2	i	-2	nt
CCOc1ccc(N2C(=O)CC(NCCNc3ccc([N+](=O)[O-])cn3)C2=O)cc1 (stereo not given)	3	1	-3	1	1	i	16	17
Cc1ccc2[nH]c(CNC(=O)c3ccc(F)cc3)cc2c1	0	0	-1	6	3	i	-8	3
Cc1cc(C)c2nc(Cl)c(Cl)nc2c1	-1	1	-7	-19	-11	i	-9	-7
CC(NC(=O)C1CCC(CNS(=O)(=O)c2ccccc2)CC1)c1ccccc1 (stereo not given)	-1	-1	-10	-16	1	i	-6	-1
Clc1ccc2c(c1)Nc1ccccc1CC2	1	3	4	-23	nt	i	nt	-8
O=C(c1c(F)cccc1F)N1CCN=C1SCc1ccccc1	2	0	-2	nt	-3	i	-10	5
CC(=O)Nc1ccc(NC(=O)CSc2ccc3nnc(-c4cccnc4)n3n2)cc1	0	-1	-23	-8	17	i	2	1
CCc1nc(C)cc2c1sc1ccccc12	-1	4	1	-49	7	i	7	?
CCC1CCCCN1C(=O)c1c[nH]c2ccc(S(=O)(=O)N(C)c3ccc(Cl)cc3)cc2c1=O (stereo not given)	-1	-7	9	-11	0	i	3	-2
CCOc1ccccc1NC(=O)C(OC(=O)c1ccc(N(C)C)cc1)c1ccccc1 (stereo not given)	-5	-3	3	-11	-4	i	-1	10
CC(=O)COc1ncnc2c(Cl)cc(Cl)cc12	0	0	nt	nt	15	i	-4	-14
O/N=C1/CCSc2ccccc21	4	4	5	1	8	i	-9	nt
CC(=O)N1CCN=C1SCc1cccc(C(F)(F)F)c1	4	5	-22	-11	6	i	-4	26
O=C(CSc1nnc(-c2ccco2)o1)NC1CCCCCC1	4	4	-4	-1	13	i	2	nt
CN(C(=O)CN1C(=O)S/C(=C\c2ccccc2Cl)C1=O)C1CCS(=O)(=O)C1 (stereo not given)	0	2	0	-17	-13	i	-18	-13
Cc1ccc(/C=C(\C#N)C(=O)Nc2c(C)cccc2C)s1	-14	4	0	nt	46	i	68	nt	eIF4H FP inh retest=-1;PABP FP inh retest=5
NC(N)=Nc1nc2ccc([N+](=O)[O-])cc2[nH]1	-2	-1	-7	-26	-1	i	-8	-22
CCCCC1=CC2=C(c3ccco3)C(=O)C(C)(OC(=O)c3ccc(OC)cc3)C(=O)C2=CN1Cc1ccc(OC)cc1 (stereo not given)	nt	nt	nt	nt	16	i	31	nt
OC(c1ccc(-c2ccccc2)cc1)c1ncc(-c2ccccc2Cl)[nH]1 (stereo not given)	0	5	nt	-18	nt	nt	nt	-19
CN(C(=O)c1ccccc1C(=O)OCC(=O)Nc1ccc(S(N)(=O)=O)cc1)c1ccccc1	0	-1	3	5	nt	i	nt	-4
C=CCc1ccccc1OCC(=O)NNC(=S)NCc1ccccc1	0	-9	12	-12	5	i	2	19
CCC(c1nnc(SCC(=O)NC23CC4CC(CC(C4)C2)C3)o1)N(C)C (stereo not given)	3	7	-4	0	6	nt	-5	nt
Cc1nc2cc(NS(=O)(=O)c3ccc(Br)cc3)ccc2n1C	1	-6	1	nt	0	i	8	-7
CCOC(=O)c1ccc2ncc(-c3ccccc3)nc2c1	8	-4	nt	nt	-3	i	-9	-82
CC1(C)C(=O)Nc2ccccc2N1C(=O)COc1ccc(C#N)cc1	-1	-2	-13	6	nt	nt	nt	nt
O=C(CSc1oc(-c2ccco2)nc1S(=O)(=O)c1ccc(F)cc1)NCC1CCCO1 (stereo not given)	-9	-1	4	-4	-8	i	28	4
COCCN(C(=O)COC(=O)CNC(=O)c1cccs1)c1c(N)n(Cc2ccccc2)c(=O)[nH]c1=O	-2	3	-19	nt	nt	i	nt	nt
CCN(C(=O)CN1C(=O)/C(=C/c2ccccc2)SC1=S)C1CCS(=O)(=O)C1 (stereo not given)	-1	-1	0	-1	16	i	1	-8
Cc1cc(S(=O)(=O)c2cc3ccc(O)c(C)c3oc2=O)ccc1F	-7	-13	11	-1	14	i	25	-1
O=C(NNc1nc2c(F)cc(F)cc2s1)c1ccccc1	4	6	-10	nt	-9	i	5	3
CCc1cc(Cn2nc(-c3ccccc3)cc2C(=O)NCCOC)on1	3	3	-7	-11	nt	i	nt	-36
Cn1c(=O)c(C(=O)COC(=O)c2cc(-c3ccco3)nc3ccccc23)c(N)n(CC2CC2)c1=O	nt	nt	9	nt	-13	i	54	nt	eIF4H FP inh retest=3;PABP FP inh retest=1
C/C(N)=C(/C#N)C(=O)CSc1nncn1-c1ccccc1	1	3	-14	-9	12	i	7	16
O=C(COC(=O)c1ccc(NS(=O)(=O)c2cccs2)cc1)NCC1CCCO1 (stereo not given)	-3	-4	8	nt	71	i	-2	5	eIF4H FP inh retest=0;PABP FP inh retest=1
COc1ccccc1NC(=O)Nc1cc(F)ccc1F	1	-4	-1	-2	2	nt	7	3
CC(=O)c1ccc(COC(=O)Cc2ccc([N+](=O)[O-])cc2)cc1	0	0	-2	-7	-9	i	-6	-9
Cn1c(=O)oc2cc(S(=O)(=O)N3CCCC(C(=O)NCCN4CCOCC4)C3)ccc21 (stereo not given)	4	0	4	-17	-5	nt	0	20
Cc1ccc2nc(C)cc(Nc3ccc([N+](=O)[O-])cc3)c2c1	0	-7	-11	nt	4	i	-18	16
O=C(CSCc1ccccc1)Nc1ccccc1	0	2	5	-7	9	i	5	-38
c1cncc(-c2nc(NCc3cccs3)c3ccccc3n2)c1	0	0	0	nt	5	i	-14	10
O=C(O)/C(CC(=O)c1ccc(Cl)cc1)=N/Nc1ccc([N+](=O)[O-])cc1[N+](=O)[O-]	nt	nt	10	-5	27	i	5	-10
CC(c1ccccc1)N1C(=O)CC(Sc2ncccc2C(=O)O)C1=O (stereo not given)	11	3	-6	nt	6	i	-2	nt
CCCC[C@@H]1CCCO[C@@](C(=O)NCc2ccccn2)(C(F)(F)F)C1	-4	-4	0	12	nt	i	nt	20
COc1ccc(-c2cnc(SCC(=O)Nc3ccc4c(c3)OCO4)n2Cc2ccco2)cc1	1	-8	nt	-5	-1	i	4	-164
COc1ccc(N=c2cc(-c3ccc(O)cc3)oc3ccccc23)cc1	-20	0	40	nt	-2	i	-6	-3
O=C(NC1CCN(C(=O)Nc2ccccc2Cl)CC1)c1ccco1	-6	-4	nt	-6	-3	i	-4	-6
O=C(Cc1ccc(-n2cccc2)cc1)NC1CCCCCC1	4	-3	16	-13	-14	i	2	-13
COc1cccc(-c2nc(CS(=O)(=O)CC(=O)Nc3ccc(C(C)=O)cc3)c(C)o2)c1	1	-5	-16	-5	3	i	-1	1
O=C(CCN1CCN(c2ccccc2F)CC1)Nc1ccc2c(c1)OCO2	10	-1	11	nt	3	i	-2	21
O=C1C(=O)N(CCCn2ccnc2)C(c2cccc(Br)c2)/C1=C(\O)c1ccc2c(c1)OCCO2 (stereo not given)	-3	-1	-14	-21	2	i	-18	0
CCCCNC(=O)c1cc2ccccc2s1	2	-2	-3	nt	6	nt	10	15
CCOc1ccc(NC(=O)c2cc3c(=O)n(C)c4ccccc4c3n2C)cc1	8	2	1	-14	-16	i	3	-10
O=C(Cn1nc(C(F)(F)F)c2c1CCC2)NCc1ccc(Cl)cc1	4	9	-10	-10	3	i	7	nt
CCCCNC(=O)COc1ccccc1C(=O)c1cc(C#N)c(=O)n(CCOC)c1	1	5	5	-8	-3	i	-12	9
C[C@H](CO)N1C[C@H](C)[C@@H](CN(C)Cc2cccnc2)Oc2cc(-c3cccnc3)ccc2S1(=O)=O	3	2	nt	-10&-15&-8	nt	nt	nt	-10
CC(C)n1c(C(F)(F)F)nc2cc(C(=O)N3CCC(O)CC3)ccc21	-1	3	-20	-10	-14	i	-7	-2
Additional compounds
SMILES	MT1-MMP act inh	MT1-MMP act inh RFP	CSC inhib	UUG fidelity	PABP FP inh	Rce1 inhib	eIF4H FP inh	Env fusion inh	others
CCCn1c(C(O)c2ccc(OC)c(OC)c2)nc2ccccc21 (stereo not given)	0	-19	1	-7	-1	i	8	2
CC(=O)c1cc(C)ccc1OC(=O)c1cccnc1	-3	4	14	-2	-15	i	-9	nt
COCCn1c(=S)[nH]c2cc(C(=O)N3CCN(Cc4ccc5c(c4)OCO5)CC3)ccc2c1=O	5	-14	nt	-13	-6	nt	4	86*
COC(=O)/C(C#N)=C/c1occc1C	-14	-6	6	-18	4	i	-1	-33
O=C(NCCNCc1ccc(F)cc1)c1ccco1	7	6	-12	2	42	i	0	-29
Cc1nn(C)c(C)c1CN(C(=O)C1CCC(=O)N(C2CCCCCC2)C1)C(C)C (stereo not given)	3	5	-10	-14	32	i	-9	-22
CC(=O)NCCn1c(SCc2cccc([N+](=O)[O-])c2)nc2ccccc2c1=O	-4	0	-5	-21	7	i	-6	-7
C[C@H](CO)N1C[C@H](C)[C@@H](CN(C)S(=O)(=O)c2ccc(F)cc2)OCc2cnnn2CCCC1=O	2	3	nt	-20&-10	nt	nt	nt	13
CCc1nc2c(OCc3cccc(Cl)c3)cccn2c1N(C)C(C)=O	-8	2	nt	-10	nt	nt	nt	7
Cc1csc(CNc2ncnc3ccc(-c4ccoc4)cc23)c1	-14	-18	-5	-22	nt	nt	nt	41
COc1cc(/C=N/Nc2ccc(F)cc2F)cc(OC)c1O	2	5	95*	nt	0	i	4	-14
COc1ccc(CNS(=O)(=O)c2ccc(-c3cnc(C4CC4)o3)cc2)cc1	-1	-8	-1	-7	4	i	-9	-2
CC(OC(=O)C1CCCC1)C(=O)Nc1ccc(C(N)=O)cc1 (stereo not given)	5	4	-3	1	nt	nt	nt	-4
O=C(NCc1ccncc1)/C(=C\c1ccc(F)cc1)NC(=O)c1ccccc1	2	1	-5	-3	-10	i	5	-2
Nc1nc(-c2ccc(Cl)cc2)nn1C(=O)c1ccco1	0	-1	13	-11	-12	i	-1	5
Cc1ccc(Nc2nc(N/N=C\c3ccc4c(c3)OCO4)nc(N3CCOCC3)n2)cc1	-5	-4	54	-21	5	nt	-1	30
CC(=O)N1CCc2cc(NC(=O)C3(C)CCN3CCc3ccccc3)ccc21 (stereo not given)	2	4	nt	-12	nt	nt	nt	14
COC(=O)CSc1snnc1-c1ccc(F)cc1	-1	1	4	-10	-7	i	-5	nt
CCc1ccccc1NC(=O)c1cc(-c2cccs2)on1	0	4	-2	-8	2	i	-12	-2
C[C@H]1CN([C@@H](C)CO)C(=O)c2cc(/C=C/c3ccccc3)cnc2O[C@H]1CN(C)C(=O)c1cccc(F)c1	6	-1	nt	14&16	nt	nt	nt	5
CCOC(=O)N1CCc2c(sc3c2c(=O)n(Cc2ccccc2)c(=O)n3Cc2cccc(C)c2)C1	0	-6	-1	-12	0	i	4	-4
CCN1C(=O)[C@@H]2Cc3c([nH]c4ccccc34)C(c3ccc(OC)cc3)N2C1=S (stereo not given in full)	-72	1	50	-15	-8	i	53	nt	eIF4H FP inh retest=-3;PABP FP inh retest=17
